Ecoli rRNA inh: inhibits bacterial ribosomal RNA function over humanized ribosomes; AID 720706; E. coli WT GFP vs humanized-ribosome RFP mutants, fluorescence, 24 h; active compounds read low; DMSO median 0, no signal -100; GFP signal change (wild-type ribosome), % (test concentration not listed); hit rate 1.6% among 350,000;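 active = significant combined selectivity score with lowered wild-type GFP, culture density cut under 30%, mutant RFP and density less affected; inactive = any of these conditions unmet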; also: one replicate is shown; some compounds called inactive have numbers as strong as hits
Ecoli rRNA inh OD600: recorded beside Ecoli rRNA inh, whose call it bears; OD600 change, %; measured here: OD600 growth;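 optical density of the mix in the first replicate; 0 = DMSO median and -100 = no signal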
Ecoli rRNA inh RFP: also measured in Ecoli rRNA inh; calls as there; RFP signal change, %; measured here: RFP humanized mutant strains;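 first replicate; 0 = DMSO median and -100 = no signal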
* = called active by the depositor. This is a subset (hit frequency here may not be typical).

cpd	Compound	Ecoli rRNA inh	Ecoli rRNA inh OD600	Ecoli rRNA inh RFP
1	COc1ccc(NC(=O)Nc2ccc3c(c2)C(=O)N([C@@H](C)CO)C[C@H](C)[C@@H](CN(C)S(=O)(=O)c2cccs2)OCCCC[C@@H](C)O3)cc1	-2	5	-1.7
2	COc1ccccc1CNC(=O)C[C@H]1CC[C@H]2[C@@H](COc3ccc(NC(=O)Nc4ccc(F)c(F)c4)cc3C(=O)N2C)O1	-8	-12	11
3	CC1CCCC(C)N1C(=O)COC(=O)c1ccccc1C(=O)c1ccccc1 (stereo unspecified)	-1	-2	1.6
4	COc1ccc(C(Cl)=C(C=O)c2ccc(OC)c(OC)c2)cc1OC	6	9	0.4
5	CO[C@@H]1CN(C)C(=O)c2cc(NC(=O)c3ccccc3)ccc2OC[C@H](C)N(C(C)=O)C[C@@H]1C	-2	-7	-2.4
6	COc1cc(CNc2ncnc3c2ncn3[C@H]2CN(Cc3cccc(C(F)(F)F)c3)C[C@@H](COC(C)=O)O2)cc(OC)c1OC	15	8	3.8
7	O=C(CN1CCOCC1)NC[C@@H]1N[C@@H](CO)[C@@H]1c1ccc(-c2ccccc2)cc1	1	0	1.9
8	O=C(c1cnccn1)N1CC(=O)N2[C@H](CO)[C@H](c3ccc(C#CCc4ccccc4)cc3)[C@H]2C1	0	5	-4.8
9	CCCNC(=O)N1C[C@H](O)COC[C@H]2O[C@@H](CC(=O)N3CCCCC3)CC[C@@H]21	3	-7	3.9
10	CCS(=O)(=O)N1CCC2(CC1)CN(Cc1ccccc1F)[C@H](CO)c1c2c2ccc(OC)cc2n1C	0	-24	-1.3
11	CC(C)C#Cc1ccc2c(c1)O[C@H](CN(C)C(=O)CC1CC1)[C@H](C)CN([C@@H](C)CO)S2(=O)=O	-8	-19	1.8
12	O=C(C[C@H]1C[C@H]2c3cc(NC(=O)Cc4ccncc4)ccc3O[C@H]2[C@@H](CO)O1)NCc1ccncc1	-1	7	-1.1
13	C[C@H](O)C#Cc1cnc2c(c1)C(=O)N([C@H](C)CO)C[C@H](C)[C@@H](CN(C)CC1CCOCC1)O2	-2	8	-3.9
14	COc1ccc(CSc2n[nH]c(=O)[nH]c2=O)cc1	2	1	-0.2
15	CO[C@@H]1CN(C)C(=O)c2ccc(NS(=O)(=O)c3cn(C)cn3)cc2OC[C@H](C)NC[C@@H]1C	2	4	-0.1
16	COc1ccc2c3c([nH]c2c1)[C@@H](CO)N(Cc1ccc(F)cc1)CC31CCN(C(C)=O)CC1	7	-2	-1.7
17	CC(C)NC(=O)Nc1ccc2c(c1)C(=O)N([C@@H](C)CO)C[C@@H](C)[C@H](CN(C)C(=O)Nc1ccc(C(F)(F)F)cc1)OCCCC[C@H](C)O2	3	3	-0.7
18	COc1ccc(CN(C)C[C@H]2OCCCC[C@H](C)Oc3ccc(NS(=O)(=O)c4cccs4)cc3C(=O)N([C@H](C)CO)C[C@@H]2C)cc1	0	-10	0.0
19	O=C(Nc1cccc(S(=O)(=O)C(F)(F)F)c1)[C@H]1C[C@H](O)[C@@H](CO)O1	3	8	2.0
20	C[C@@H]1CCCCO[C@H](CN(C)Cc2ccc3c(c2)OCO3)[C@H](C)CN([C@@H](C)CO)C(=O)c2cc(NS(=O)(=O)c3ccc(F)cc3)ccc2O1	8	-16	5.9
21	O=C(C[C@H]1CC[C@H]2[C@@H](COC[C@H](O)CN2C(=O)c2ccccc2F)O1)N1CCOCC1	5	14	1.0
22	COC(=O)C1(C)COP(=O)(Nc2ccc(OC)cc2)OC1 (stereo unspecified)	5	5	-1.1
23	C[C@H]1CCCCO[C@@H](CN(C)C(=O)Cc2ccccc2)[C@@H](C)CN([C@@H](C)CO)C(=O)c2cc(NC(=O)c3ccncc3)ccc2O1	1	1	0.3
24	COc1ccc(NC(=O)N2C[C@H](O)COC[C@H]3O[C@@H](CC(=O)N4CCCCC4)CC[C@@H]32)cc1	-2	10	1.5
25	CCCN(C)C[C@H]1OCCCC[C@@H](C)Oc2ccc(NC(=O)CCC(F)(F)F)cc2C(=O)N([C@H](C)CO)C[C@@H]1C	2	4	1.8
26	COc1cccc(S(=O)(=O)N2C[C@@H](O)COC[C@H]3O[C@@H](CC(=O)N4CCOCC4)CC[C@@H]32)c1	0	-1	-3.6
27	COCC(=O)Nc1ccc2c(c1)C(=O)N(C)C[C@@H](OC)[C@H](C)CN(C(=O)CC1CC1)[C@H](C)CO2	1	-1	-0.6
28	CO[C@@H]1CC[C@@H]2CCOc3ccc(C#N)cc3C(=O)N(C)[C@H](C)C(=O)N(C)C[C@H]1O2	2	4	-1.7
29	Cc1ccc(S(=O)(=O)Nc2cccc3c2O[C@@H](CN(C)C(=O)Nc2ccc(F)cc2)[C@@H](C)CN([C@H](C)CO)C3=O)cc1	-4	0	2.6
30	C[C@H](CO)N1C[C@H](C)[C@H](CN(C)C)Oc2cc(-c3ccc(F)cc3)ccc2S1(=O)=O	1	6	-0.8
31	COc1ccc(S(=O)(=O)N(C)C[C@@H]2OCCCC[C@H](C)Oc3ccc(NS(=O)(=O)c4ccc(F)cc4)cc3C(=O)N([C@@H](C)CO)C[C@H]2C)cc1	-4	-3	-1.2
32	O=C(C1CCCCC1)N1CC2(C1)[C@H](c1ccccc1)[C@H](CO)N2Cc1ccccc1F	-18	-62	39

33	CO[C@@H](CN(C)C(=O)c1ccccc1F)[C@H](C)CN([C@H](C)CO)S(=O)(=O)c1ccc(C)cc1
34	CCCC#Cc1cnc2c(c1)C(=O)N([C@@H](C)CO)C[C@H](C)[C@@H](CN(C)C(=O)C1CCCCC1)O2
35	CCCNC(=O)N1C[C@@H](C)[C@@H](OC)CN(C)C(=O)c2ccc(NC(C)=O)cc2OC[C@H]1C
36	C[C@H](CO)N1C[C@H](C)[C@@H](CN(C)Cc2cccnc2)Oc2cc(-c3ccncc3)ccc2S1(=O)=O
37	O=C(c1ccccc1)N1CC(=O)N2[C@H](CO)[C@H](c3ccc(-c4ccccc4)cc3)[C@@H]2C1
38	CCC(=O)N(C)C[C@H]1Oc2ncc(C#Cc3ccc(OC)cc3)cc2C(=O)N([C@@H](C)CO)C[C@H]1C
39	C[C@@H]1CN([C@@H](C)CO)S(=O)(=O)c2ccc(C3=CCCCC3)cc2O[C@@H]1CN(C)Cc1ccccc1
40	COc1cccc(NC(=O)N[C@@H]2C=C[C@@H](CC(=O)Nc3ccc(-c4ccccc4)cc3)O[C@@H]2CO)c1
41	C[C@H](NC(=O)C[C@H]1C[C@H]2c3cc(NC(=O)c4cccnc4)ccc3O[C@H]2[C@H](CO)O1)c1ccccc1
42	COc1ccc(NC(=O)N(C)C[C@H]2OCCCC[C@@H](C)Oc3ccc(NC(=O)Nc4ccc5c(c4)OCO5)cc3C(=O)N([C@H](C)CO)C[C@H]2C)cc1

assay / compound,33,34,35,36,37,38,39,40,41,42
Ecoli rRNA inh,0,4,2,-4,-3,-4,-4,-2,-2,1
Ecoli rRNA inh OD600,10,6,4,-5,-19,-5,-34,0,-5,8
Ecoli rRNA inh RFP,5.7,2.7,-0.4,-3.0,2.5,2.2,2.4,2.2,-2.0,0.0

Single records (already shown). Values in the order: Ecoli rRNA inh	Ecoli rRNA inh OD600	Ecoli rRNA inh RFP
Results for CCCC#Cc1cnc2c(c1)C(=O)N([C@@H](C)CO)C[C@H](C)[C@@H](CN(C)C(=O)C1CCCCC1)O2 : 4	6	2.7
Results for C[C@@H]1CN([C@@H](C)CO)S(=O)(=O)c2ccc(C3=CCCCC3)cc2O[C@@H]1CN(C)Cc1ccccc1 : -4	-34	2.4

The list continues.
43	C[C@@H]1CCCCO[C@H](CN(C)Cc2ccncc2)[C@H](C)CN([C@@H](C)CO)C(=O)c2cc(NC(=O)c3ccncc3)ccc2O1
44	COC(=O)C1=CN(c2ccc(OC)cc2OC)C(N)=C(C#N)C1c1cccc([N+](=O)[O-])c1 (stereo unspecified)
45	NCC[C@H]1CC[C@H](NC(=O)Cc2ccncc2)[C@@H](CO)O1
46	C[C@@H]1CCCCO[C@@H](CN(C)Cc2ccc(C(F)(F)F)cc2)[C@H](C)CN([C@@H](C)CO)C(=O)c2cc(NC(=O)C3CCCCC3)ccc2O1
47	C[C@H]1CCCCO[C@H](CN(C)C(=O)NC2CCCCC2)[C@@H](C)CN([C@@H](C)CO)C(=O)c2cc(NC(=O)Nc3ccc(C(F)(F)F)cc3)ccc2O1
48	CCS(=O)(=O)NCC[C@H]1CC[C@H](NC(=O)C2CCC2)[C@H](CO)O1
49	CNC(=O)C[C@@H]1CC[C@@H]2[C@H](COc3ccc(NC(=O)Nc4c(C)noc4C)cc3C(=O)N2C)O1
50	Cc1noc(C)c1NC(=O)Nc1ccc2c(c1)C(=O)N(C)[C@H]1CC[C@H](CC(=O)N[C@H]3CCN(Cc4ccccc4)C3)O[C@H]1CO2
51	COc1ccc(NC(=O)Nc2cccc3c2O[C@@H](CN(C)C(=O)Nc2ccccc2)[C@@H](C)CN([C@H](C)CO)C3=O)cc1
52	COc1cccc(CN2CCC2(C)C(=O)NCc2cccc(C(F)(F)F)c2)c1OC (stereo unspecified)

assay / compound,43,44,45,46,47,48,49,50,51,52
Ecoli rRNA inh,-2,-10,1,-1,0,0,0,1,-2,-24
Ecoli rRNA inh OD600,-1,5,10,0,1,-1,3,-2,2,-34
Ecoli rRNA inh RFP,1.4,-0.7,-1.6,2.2,0.5,-1.2,-1.2,-2.5,-1.8,-6.5

53	C[C@H](CO)N1C[C@H](C)[C@@H](CN(C)S(=O)(=O)c2ccc(Cl)cc2)OCCCC[C@H](C)Oc2ccc(NC(=O)Nc3ccc4c(c3)OCO4)cc2C1=O
54	C[C@H](CO)N1C[C@H](C)[C@H](CN(C)C(=O)Nc2ccc(F)cc2)Oc2ccc(NS(=O)(=O)c3ccccc3)cc2C1=O
55	CCCNC(=O)C[C@H]1CC[C@H]2[C@H](COc3ccc(NC(=O)c4cccc(F)c4)cc3C(=O)N2C)O1
56	O=C(C(=O)N1CCN(c2ccncc2)CC1)c1cccc(Br)c1
57	C[C@H](O)C#Cc1ccc([C@H]2[C@H]3CN(C(=O)c4ccc5c(c4)OCO5)CCCCN3[C@H]2CO)cc1
58	COc1cccc(-c2ccc3c(c2)N(Cc2ccccc2OC)C(=O)C(C)S3)c1 (stereo unspecified)
59	CCC(=O)N1C[C@@H](O)COC[C@H]2O[C@H](CC(=O)NCc3ccccc3Cl)CC[C@@H]21
60	C/C=C/c1ccc2c(c1)O[C@H](CN(C)C(=O)Nc1cc(F)ccc1F)[C@H](C)CN([C@@H](C)CO)S2(=O)=O
61	C[C@@H]1CN([C@H](C)CO)C(=O)c2cc(NS(=O)(=O)c3cccs3)ccc2O[C@H]1CN(C)S(=O)(=O)c1ccc(Cl)cc1
62	CC=Cc1ccc2n(c1=O)C[C@H]1[C@H](CO)[C@@H](C(=O)NCc3ccc(F)cc3)[C@@H]2N1CC (mixture of isomers)

assay / compound,53,54,55,56,57,58,59,60,61,62
Ecoli rRNA inh,3,-6,-2,3,-2,10,-2,-8,-5,-1
Ecoli rRNA inh OD600,2,-5,-2,0,-14,18,5,-12,-14,-1
Ecoli rRNA inh RFP,-1.0,1.3,-1.9,2.3,4.8,-0.8,4.1,0.1,3.7,-1.7

63	CN1CCN(C(=O)C[C@H]2C[C@@H]3c4cc(NC(=O)NC5CCCCC5)ccc4O[C@@H]3[C@H](CO)O2)CC1
64	C[C@@H]1CN([C@H](C)CO)S(=O)(=O)c2ccc(-c3ccccc3)cc2O[C@H]1CN(C)C(=O)CC1CC1
65	CNC[C@@H]1Oc2ccc(NS(=O)(=O)c3cccs3)cc2C(=O)N([C@H](C)CO)C[C@@H]1C
66	C[C@H]1CN([C@@H](C)CO)S(=O)(=O)c2ccc(-c3cncnc3)cc2O[C@@H]1CN(C)C(=O)C1CCCCC1

assay / compound,63,64,65,66
Ecoli rRNA inh,2,-4,1,3
Ecoli rRNA inh OD600,-2,-17,6,11
Ecoli rRNA inh RFP,0.0,2.6,-1.7,6.9

Structural class: those above containing a CF3 group
6	COc1cc(CNc2ncnc3c2ncn3[C@H]2CN(Cc3cccc(C(F)(F)F)c3)C[C@@H](COC(C)=O)O2)cc(OC)c1OC
17	CC(C)NC(=O)Nc1ccc2c(c1)C(=O)N([C@@H](C)CO)C[C@@H](C)[C@H](CN(C)C(=O)Nc1ccc(C(F)(F)F)cc1)OCCCC[C@H](C)O2
19	O=C(Nc1cccc(S(=O)(=O)C(F)(F)F)c1)[C@H]1C[C@H](O)[C@@H](CO)O1
25	CCCN(C)C[C@H]1OCCCC[C@@H](C)Oc2ccc(NC(=O)CCC(F)(F)F)cc2C(=O)N([C@H](C)CO)C[C@@H]1C
46	C[C@@H]1CCCCO[C@@H](CN(C)Cc2ccc(C(F)(F)F)cc2)[C@H](C)CN([C@@H](C)CO)C(=O)c2cc(NC(=O)C3CCCCC3)ccc2O1
47	C[C@H]1CCCCO[C@H](CN(C)C(=O)NC2CCCCC2)[C@@H](C)CN([C@@H](C)CO)C(=O)c2cc(NC(=O)Nc3ccc(C(F)(F)F)cc3)ccc2O1
52	COc1cccc(CN2CCC2(C)C(=O)NCc2cccc(C(F)(F)F)c2)c1OC (stereo unspecified)

assay / compound,6,17,19,25,46,47,52
Ecoli rRNA inh,15,3,3,2,-1,0,-24
Ecoli rRNA inh OD600,8,3,8,4,0,1,-34
Ecoli rRNA inh RFP,3.8,-0.7,2.0,1.8,2.2,0.5,-6.5

Source: PubChem BioAssay (Broad Institute)
